# Screens deposited in PubChem BioAssay by Johns Hopkins Ion Channel Center.
# KCNQ2 pot: enhances the rat KCNQ2 potassium channel; CHO-K1 KCNQ2, FluxOR thallium flux fluorescence; hits give high values; O88943; actives 0.54% (n = 310,000); B-score at 10 µM;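 active = fluorescence ratio B-score at least 3 SD of library B-scores, with initial fluorescence B-score within 3 SD, cut at about 5.3 in these data; same plate scores as AID 2156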;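 note: B-score of peak minus minimum over baseline fluorescence ratio after K+ and Tl+ stimulus; positive B-score means potentiation of KCNQ2 with more thallium influx and brighter signal; only the inactives scoring about 0 or higher are listed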
# Target sequence (O88943 whole entry, looked up): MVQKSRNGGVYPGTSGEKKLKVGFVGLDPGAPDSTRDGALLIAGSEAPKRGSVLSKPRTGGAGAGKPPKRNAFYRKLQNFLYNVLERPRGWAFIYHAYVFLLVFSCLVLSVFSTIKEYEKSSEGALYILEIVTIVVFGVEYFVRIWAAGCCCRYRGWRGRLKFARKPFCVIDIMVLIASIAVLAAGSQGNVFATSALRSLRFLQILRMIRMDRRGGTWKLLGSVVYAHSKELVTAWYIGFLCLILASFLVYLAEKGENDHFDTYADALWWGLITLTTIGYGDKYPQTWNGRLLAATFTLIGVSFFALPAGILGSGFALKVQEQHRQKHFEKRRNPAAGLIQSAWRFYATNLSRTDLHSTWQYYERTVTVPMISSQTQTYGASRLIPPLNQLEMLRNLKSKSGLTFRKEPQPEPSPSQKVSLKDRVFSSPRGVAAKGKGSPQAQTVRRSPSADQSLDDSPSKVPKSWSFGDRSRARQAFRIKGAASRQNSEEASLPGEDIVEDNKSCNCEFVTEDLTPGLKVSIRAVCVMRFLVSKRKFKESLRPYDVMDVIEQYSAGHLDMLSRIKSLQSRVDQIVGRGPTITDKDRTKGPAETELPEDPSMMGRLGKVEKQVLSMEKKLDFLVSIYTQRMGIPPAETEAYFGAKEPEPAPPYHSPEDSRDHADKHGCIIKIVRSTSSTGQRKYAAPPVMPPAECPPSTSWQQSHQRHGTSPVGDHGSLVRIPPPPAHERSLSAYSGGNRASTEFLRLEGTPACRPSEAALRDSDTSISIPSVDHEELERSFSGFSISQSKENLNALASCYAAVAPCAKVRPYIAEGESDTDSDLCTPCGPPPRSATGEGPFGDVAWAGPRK
# KCNQ2 pot baseline: also measured in KCNQ2 pot; calls as there; B-score; compound at 10 µM; measured here: initial fluorescence intensity artifact check;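 brightness before thallium and not channel activity; 0 = typical well and far values either way flag optical interference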
# The depositor's hits bear a star. This is a subset. The share of hits here may be higher or lower than overall.
SMILES	KCNQ2 pot baseline	KCNQ2 pot
OC(CNc1nc(C(F)(F)F)nc2ccccc12)c1ccccc1 (stereo not drawn)	0.94	1.5
CC(=O)C1=C(C)N(c2ccccc2)C(=O)C1(NS(=O)(=O)c1ccc(N)cc1)C(F)(F)F (stereo not drawn)	1.5	0.91
CC(=O)N(C)c1ccc(NC(=S)Nc2ccccc2)cc1	-2.3	0.9
COCCCN1CC(=O)N2C(c3ccc(OC)c(OC)c3)c3[nH]c4ccccc4c3C[C@H]2C1=O (stereo partly drawn)	0.46	1
O=C(NCc1ccccc1)C1COc2ccccc2O1 (stereo not drawn)	0.04	0.21
CCOCC(=O)Nc1nnc(Cc2ccc(OC)cc2)s1	-0.15	0.85
COc1ccc2nc(Nc3nc(CSc4nnnn4-c4ccccc4)cc(=O)[nH]3)nc(C)c2c1	-2	0.87
Cc1cc2c(cc1C)/C(=C\C(N)=O)NC(C)(C)C2	-0.98	0.65
COc1ccc(NC(=O)CSc2nc(N)c3cc4c(nc3n2)CCCC4)c(OC)c1	-0.14	1.1
Cc1csc2sc(-c3ccnc(SCC(=O)NCc4ccccc4)n3)c(C)c12	0.38	1.7
CC(Oc1ccc(Cl)cc1Cl)C(=O)NNC(=O)c1ccncc1 (stereo not drawn)	-2.2	0.02
CC(C)Cn1c(=O)c2ccccc2n2c(SCC(=O)N3c4ccccc4CC3C)nnc12 (stereo not drawn)	-0.16	0.35
O=C(O)COc1ccccc1/C=N/Nc1ccc(S(=O)(=O)Nc2ccc(Cl)cc2)cc1[N+](=O)[O-]	-2.1	0.02
COc1cc(C(=O)OCC(=O)N2CCOCC2)c([N+](=O)[O-])cc1OC	1.7	0.69
COc1ccc(Nc2nnc(-c3ccc(C(N)=O)cc3)c3ccccc23)cc1	0.02	0.34
COc1ccc(CCNC(=O)CSc2ccc3nnc(CCNC(=O)c4ccc(C)cc4)n3n2)cc1OC	-0.58	0.81
Cc1ccc(S(=O)(=O)N2CCC(O)(c3cccnc3)CC2)cc1	-0.68	0.3
CN(CC1CCOCC1)C(=O)CC1C(=O)NCCN1Cc1cccc(Oc2ccccc2)c1 (stereo not drawn)	-1.2	0.57
COc1cccc(CNC(=O)CCc2nnc(C3CCCCC3)o2)c1	-0.4	0.35
CC(=O)Nc1ccc(NS(=O)(=O)c2cn(C)c(=O)n(C)c2=O)cc1	0.89	0.01
CC(=O)Oc1ccc(C(=O)NCc2ccc3c(c2)OCO3)cc1	-1.9	2.5
CCCNS(=O)(=O)c1ccc(CCC(=O)N2CCN(c3ccc(OC)cc3)CC2)cc1	-1.1	0.66
CC(C)(C)C1CCc2onc(C(=O)Nc3cnn(Cc4ccc(F)cc4)c3)c2C1 (stereo not drawn)	1.2	0.37
O=C(Nc1ncnc2c1CCC2)C12CC3CC(CC(C3)C1)C2	1.2	0.05
O=C1CCCN1c1ccc(S(=O)(=O)NCc2ccc(F)cc2)cc1	-0.11	0.31
O=C(c1cc(Cl)nc2ccccc12)N1CCN(S(=O)(=O)c2ccccc2[N+](=O)[O-])CC1	3.3	0.15
CCCCN(CC)C(=S)Nc1ccc2nc3n(c(=O)c2c1)CCCCC3	-1.1	2
NC(=O)CSc1nnc(C2CC2)n1Cc1ccccc1	-0.13	0.92
Cc1ccccc1-c1nnc(SCC(=O)N(C)c2c(N)n(Cc3ccccc3)c(=O)[nH]c2=O)n1C	0.72	1.1
Cc1cccn2c(CNCCCOc3cccnc3)c(C(=O)N3CCOCC3)nc12	-0.14	0.16
CCOc1ccc(-c2cc(CCCC(=O)NCc3ccco3)no2)cc1	0.02	0.78
COc1cc(CN2CCCC(C(=O)c3ccc(C(C)(C)C)cc3)C2)cc(OC)c1O (stereo not drawn)	0.2	1.1
CCNC(=O)N(CCOC)CC1CCCN(C2Cc3ccccc3C2)C1 (stereo not drawn)	-0.21	0.01
O=C(Nc1ccccc1)c1cc(S(=O)(=O)N2CCOCC2)cs1	-2.2	0.28
COc1ccc(C(=O)N2CCCC(c3nc(-c4ccc(C)o4)no3)C2)cc1OC (stereo not drawn)	-1.2	1.6
COCCN(C(=O)CCc1ccc(OC)cc1)c1nnc(-c2ccncc2)s1	0.54	0.69
CCCCn1c(N)c(N(CC(C)C)C(=O)c2cc(S(=O)(=O)N3CCCCC3)ccc2C)c(=O)[nH]c1=O	1.3	0.71
CC(=O)c1cnc2c(-c3cccc(Br)c3)cnn2c1C	-1.2	1.9
O=C(O)CCC(=O)N1CCN(S(=O)(=O)c2ccc3ccccc3c2)CC1	3.2	1.3
CCC(C)NC(=O)C1CCC(CNS(=O)(=O)c2ccccc2)CC1 (stereo not drawn)	0.61	0.2
Cn1c(OCc2cccnc2)nc2c1c(=O)n(Cc1ccc(F)cc1)c(=O)n2C	0.37	2.3
Cc1ccc(C(=O)N2CCN(c3cc4c(cc3[N+](=O)[O-])n(C)c(=O)n4C)CC2)cc1	-0.71	0.67
Cc1cc(C)cc(OCC(=O)N2CCCCCC2)c1	-2.4	0.71
CC(C)C(c1nnnn1CC1CCCO1)N1CCN(Cc2ccc3c(c2)OCO3)CC1 (stereo not drawn)	0.79	0.76
CCOc1cccc(NC(=O)/C(C#N)=C\c2cn(CC(=O)O)c3ccccc23)c1	0.6	1
COc1ccc(-c2cc(C(=O)NCC(C)C)no2)cc1	0.37	0.03
COc1cc(C2C(C(C)=O)=C(O)C(=O)N2c2ccc(C)cc2)ccc1O (stereo not drawn)	-1.8	1.4
COc1ccc(OCc2n[nH]c(=S)o2)cc1	0.34	0.04
Cc1ccc(C(=O)C2=C(O)C(=O)N(Cc3cccnc3)C2c2ccc(N(C)C)cc2)o1 (stereo not drawn)	0.09	0.03
CC1(C)Cc2c(cnn2-c2ccc(F)cc2)C(NC(=O)C(C)(C)O)C1 (stereo not drawn)	-2	0.08

# 3 entries out of the list, ordered by heavy-atom count, highest first:
SMILES	KCNQ2 pot baseline	KCNQ2 pot
Cc1csc2sc(-c3ccnc(SCC(=O)NCc4ccccc4)n3)c(C)c12	0.38	1.7
COc1cc(C(=O)OCC(=O)N2CCOCC2)c([N+](=O)[O-])cc1OC	1.7	0.69
CC(=O)c1cnc2c(-c3cccc(Br)c3)cnn2c1C	-1.2	1.9

# The list goes on:
SMILES	KCNQ2 pot baseline	KCNQ2 pot
CCC(C(=O)NC1CCCCC1)N(C(=O)c1snc(C(N)=O)c1N)c1ccc(OC)cc1OC (stereo not drawn)	0.06	0.18
O=C(CSc1cn(CCNC(=O)c2cccs2)c2ccccc12)NC1CCCC1	-0.9	0.03
C[N+]1(CCOS(=O)C23CC4CC(CC(C4)C2)C3)CCOCC1 (stereo not drawn)	0.98	1
CCN1C(=O)CC(NCc2ccc3c(c2)OCO3)C1=O (stereo not drawn)	1.7	0.46
CCCCC(=O)OCC(=O)Nc1ccc(C)c(F)c1	-0.31	2
Cc1cc(C)nc(N2CCC(CNC(=O)CCc3ccccc3)CC2)n1	-1.3	0.32
COc1ccc(-c2ccc(=O)[nH]n2)cc1	0.41	0.44
CN(C)/C=C/C(=O)c1ccc(S(=O)(=O)c2ccccc2)cc1	-0.29	0.51
CCOC(=O)CNC(=O)Cc1ccc(OC)cc1	0.11	0.6
CC(C)C(C(=O)Nc1cccnc1)N1C(=O)c2ccccc2C1=O (stereo not drawn)	0	0.66
CCc1cccc2c(C(=O)C(F)(F)F)cn(CC(=O)NCC3CCCO3)c12 (stereo not drawn)	-0.62	0.08
Cc1ccccc1NC(=O)CSc1nnc(NC(=O)C2CC2)s1	1.3	0.75
Cc1csc(=Nc2ccc(S(=O)(=O)N3CCOCC3)cc2)n1Cc1ccco1	-0.23	0.33
CCOC(=O)c1nn(-c2ccc(F)cc2)c(=O)cc1OCC(=O)Nc1ccc(OCC)cc1	-0.37	1.8
CC(=O)N1CCN(c2ccc(NC(=O)c3cccc(Cl)c3)cc2)CC1	-0.25	0.09
CC(C)(C)c1ccc(C(CC(=O)O)NC(=O)CSc2ccccc2)cc1 (stereo not drawn)	1.5	0.41
O=C(COC(=O)c1nsc(Cl)c1Cl)NC1CCCC1	1.7	1
CCN(CC(=O)Nc1c(F)cccc1F)C(=O)/C=C/c1ccc(S(=O)(=O)N2CCCCCC2)cc1	-2.6	0.23
Cc1ccc(-n2nc3cc(C)c(NC(=O)c4cccnc4)cc3n2)cc1	2.2	1.4
Cc1cc(NC(=O)CSc2nnnn2-c2ccc(C)c(C)c2)no1	-0.98	0.08
O=C(Cc1ccccc1)NCCC1=CCCCC1	1.2	0.75
COc1ccc(Nc2nc(-c3ccccc3)c3ccccc3n2)cc1	0.05	0.05
COc1nc(N2CCCC2)nc(-n2nnc(C(C)=O)c2C)n1	-1.8	0.68
CCn1c(=O)cc(SCC(=O)Nc2cccnc2)c2ccccc21	0.03	0.12
Cc1cccc(-n2ncc3c2CCCC3NC(=O)Cc2c(C)noc2C)c1C (stereo not drawn)	-0.65	2.6
COc1ccccc1Nc1nc(-c2ccc([N+](=O)[O-])cc2)nc2ccccc12	0.05	1
NC(=S)c1cc2ccc(O)cc2oc1=O	1.9	0.16
CC(=O)Nc1ccc(NC(=O)c2c(-c3ccccc3Cl)noc2C)cc1	-0.97	0.31
COc1ccc(S(=O)(=O)N(C)C)cc1NC(=O)CCNC(=O)c1ccccc1OC	0.28	1.4
COc1ccc(OCC(=O)c2c[nH]c3ccccc23)cc1	-0.03	0.17
Cc1[nH]c2ccc(C(=O)NCCCN3CCCCC3)cc2c1C	0.49	0.94
CC1CCc2c(C(=O)Nc3ccc(OC(F)(F)F)cc3)csc2C1 (stereo not drawn)	-2.1	0.69
Cc1ccc(NC(=O)c2ccccc2OCc2ccc([N+](=O)[O-])cc2)nc1	0.13	1.5
CCc1c(C)nc(SC/C=C/c2ccccc2)[nH]c1=O	0.92	0.08
CC(=O)N1CCc2ccc(S(=O)(=O)Nc3ccccc3Cl)cc21	-0.94	0.18
COC(=O)C1=C(C)N(Cc2cccnc2)C(=O)/C1=C\c1cccs1	-0.45	0.05
COc1ccc(N2CCN(c3nc(Cl)nc(Nc4ccc(F)cc4)n3)CC2)cc1	-0.46	0.2
CCC(C)NC(=O)c1ccc(C(=O)c2ccccc2)cc1 (stereo not drawn)	0.2	0.65
CCn1c(COc2ccccc2)nc2ccccc21	0.74	0.08
CCc1nn2c(=O)c(S(=O)(=O)Nc3cccc(F)c3)c(C)nc2s1	-0.73	0.25
COc1ccccc1N1CCN(C(c2ccccn2)c2nnnn2C2CCCCC2)CC1 (stereo not drawn)	-1	0.08
C[C@@]12C(=O)N(Cc3ccc(-c4ccccc4)cc3)CC(=O)N1[C@H](/C=C/c1ccccc1)[C@@H]1C(=O)N(c3ccccc3)C(=O)[C@@H]12	-1.5	0.07
Cc1ccc(C(=O)OCC(=O)Nc2ncc(Cl)cc2Cl)cc1NC(=O)c1ccco1	-0.74	0.01
C=CCNC(=O)C1CCN(S(=O)(=O)c2ccc(Br)cc2)CC1	-0.77	0.88
O=C1CC2(CCN(S(=O)(=O)c3ccccc3F)CC2)Oc2ccccc21	0.33	1
CCN(CC)S(=O)(=O)c1cccc(NC(=O)CNc2cccc(S(=O)(=O)N3CCCC3)c2)c1	-0.03	0.54
O=S(=O)(Nc1ccon1)c1ccc(Br)cc1	0.41	0.04
Cc1nc2c(-c3ccc(F)cc3)c(C)nn2c(C)c1CCC(=O)NCc1ccco1	0.11	0.03
COc1ccc(/C=C(/C#N)c2cccnc2)cc1OC	-0.09	2.5
C=CCNC(=S)Nc1cccc(NC(=S)NCC=C)c1	-1.1	2

# Other records follow.
SMILES	KCNQ2 pot baseline	KCNQ2 pot
COc1ccc(-n2cnnc2SCC(=O)Nc2ccc(C(N)=O)cc2)cc1	0.22	0.98
CCOc1cccc(C(=O)Nc2ccc3ccccc3c2)c1	-0.89	0.68
CC1(C)CC(=O)N(c2ccc(Cl)cc2Cl)C(=O)C1	1.1	1.1
CC(=O)Nc1cccc(-n2c(=O)n(Cc3ccccc3)c(=O)c3[nH]cnc32)c1	0.28	0.87
Cc1ncn(-c2ccccc2)c1-c1ccccc1	0.16	0.44
NS(=O)(=O)c1ccc(NC(=O)COC(=O)C2CCCCC2)cc1	1.6	1.4
CC(O)c1nc2ccccc2n1C1CCCCC1 (stereo not drawn)	-1.9	0.86
O=C(O)CCN1C(=O)/C(=C\c2cccc(Oc3ccccc3)c2)SC1=S	-0.42	2.2
CCn1nnnc1NCc1ccc(Cl)cc1	-1.4	0.16
COCCCNC(=O)c1c[nH]c2ccc(S(=O)(=O)N3CCc4ccccc43)cc2c1=O	1.4	1.1
CCN(CC)CCOC(=O)c1ccc(N/C=C(/C#N)c2nc(-c3cccc(OC)c3)cs2)cc1	0.37	0.86
Cc1c(CN(C)C(=O)c2ccc(Br)o2)cnn1C	-1.1	1.1
CC(C)C(=O)Nc1cccc(NC(=O)CCN2C(=O)c3ccccc3S2(=O)=O)c1	-0.4	0.67
O=C(NCCS(=O)(=O)NCc1ccc(F)cc1)c1ccc2c(c1)OCO2	1.9	1.6

# Full records from above:
# CCn1nnnc1NCc1ccc(Cl)cc1 in the list: KCNQ2 pot baseline = -1.4; KCNQ2 pot = 0.16
# CC(C)C(=O)Nc1cccc(NC(=O)CCN2C(=O)c3ccccc3S2(=O)=O)c1 in the list: KCNQ2 pot baseline = -0.4; KCNQ2 pot = 0.67
